Screens (PubChem BioAssay)
Ab BasE inh: blocks the Acinetobacter baumannii siderophore enzyme BasE; purified BasE, fluorescence polarization binding displacement; inhibition, % (no concentration beside the values); actives 0.1% (n = 84,000);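 active = both replicates above 25% with normal brightness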;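 also: 0% = negative plate control signal and 100% = positive plate control signal; stock transfer was 100 nL into about 30 µL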
KSHV LANA nucl: LANA-nucleosome interaction inhibition | FITC-LANA1-23 / chicken nucleosome fluorescence polarization; stronger effect = lower value | z-score (no concentration beside the values) | actives 0.3% (n = 51,000) | AID 720717;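 active = both repeat wells score below -2 in polarization z-score versus plate sample wells, excluding overly bright wells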;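 also: 100 nL library stock added to about 30 µL; numbers are from one replicate; some results filed as inactive read as strong as hits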
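Material: Purified chicken nucleosomes with FITC-labelled LANA N-terminal peptide (1-23) | Reagent: 50 nM FITC-LANA1-23 probe | Medium: TEN-BT buffer, pH 7.5 | Times: 10–45 min incubation at room temperature | Detection: Fluorescence polarization | Replication: Duplicates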
* marks the source's active call; other numbers are inactive results; . = not tested or not shown; & = joins results of further samples.

#	mol	Ab BasE inh	KSHV LANA nucl
1	COc1ncnc2c1sc1nc3c(cc12)COC(C)(C)C3	-1.5	0.3
2	CCN(CC)C(=O)Cc1cccc(C)c1	-1.6	1.6
3	Cn1nnnc1Sc1nc(-c2ccccc2)nc2ccccc12	-0.1	.
4	Cc1cc(=O)oc2cc(NC(=S)NCc3cc(C)n(C)n3)ccc12	-2.3	-0.47
5	COc1ccc(OC)c2sc(N3CCN(C(=O)C(C)C)CC3)nc12	-0.3	-0.15
6	O=C(Oc1ccccc1Cl)C1COc2ccccc2O1 (configuration not stated)	-0.1	0.23
7	C=CCn1c(=O)sc2cc(Br)ccc21	-5.3	2
8	COC(=O)c1sccc1-c1ccc(C2C3=C(CCCC3=O)NC3=C2C(=O)CCC3)o1	1.2	0.31
9	O=C(Cn1c(SCc2ccc(F)cc2)nc2cccnc21)N1CCCC1	-2.0	-1.2
10	CN(C)c1ccc(NC(=O)c2sc3ccccc3c2Cl)cc1	.	-0.67
11	Cc1cccc(C(CC(=O)N2CCN(c3ccccc3F)CC2)n2cccc2)c1 (configuration not stated)	1.8	-0.12
12	CCN(CC)CC(O)CN1c2ccccc2Sc2ccccc21 (configuration not stated)	1.5	-0.47
13	Oc1ccc2oc3c(c2c1/C=N/N1CCCCC1)CCCC3	1.7	.
14	CCN(CC)CCn1c(=N)n(CC(O)c2ccc(Cl)c(Cl)c2)c2ccccc21 (configuration not stated)	-9.6	-0.58
15	CC(=O)NC(=O)c1cc2c(ccc3ccccc32)oc1=Nc1ccc(C)cc1	1.5	.
16	COC(=O)c1sccc1NC(=O)c1ccc(Cl)s1	1.8	-0.14
17	CC(Oc1ccc2c(-c3ccccc3)cc(=O)oc2c1)C(=O)O (configuration not stated)	-0.8	.
18	CN(Cc1c(F)cccc1Cl)C(=O)C1CC(=O)N(CCc2ccccc2)C1 (configuration not stated)	0.8	.
19	Cc1ccc(S(=O)(=O)N(CCC#N)C2CCCCC2)cc1	0.0	-0.44
20	CCN(CC)S(=O)(=O)c1cccc(-c2nnc(SCC(=O)Nc3cc(C)on3)o2)c1	1.7	.
21	NNC(=O)c1cccc(C(=O)NN)n1	-0.8	0.49
22	CN1C(=O)c2ccccc2N(C)C1c1cccs1 (configuration not stated)	-1.7	0.49
23	CC(=O)Nc1ccc2c(Cn3ncc(Cl)c(Cl)c3=O)cc(=O)oc2c1	3.0	.
24	Cc1ccc2ccc(S(=O)(=O)N3CCCCC3)cc2c1	1.4	0.046
25	CCSc1nc(O)cc(=O)n1CC	3.9	-0.14
26	NC(=O)C1CCN(S(=O)(=O)c2ccccc2)CC1	1.3	.
27	COc1ccc(N2CCN(c3nn(C)c(=O)n(C)c3=O)CC2)cc1	1.1	.
28	Cc1nn(-c2ccccc2)c(C)c1CS(=O)(=O)c1ccccc1	.	0.38
29	O=C(NCC(=O)N1CCN(C2CCS(=O)(=O)C2)CC1)c1sc2ccccc2c1Cl (configuration not stated)	1.9	.
30	COc1ccc(C2C=C(c3ccc(F)cc3)NC(=S)N2)cc1OC (configuration not stated)	0.4	.
31	Cc1ccc(N2C(=O)CC(N3CC4(C)CC3CC(C)(C)C4)C2=O)cc1 (configuration not stated)	-1.9	0.8
32	O=S(=O)(c1ccccc1)N1N=C(c2ccccc2)CC1c1ccco1 (configuration not stated)	-4.3	0.79
33	COC(=O)c1ccc(CSc2nc3c(cnn3-c3ccc(Cl)cc3)c(=O)[nH]2)o1	3.2	-0.8
34	OC(COc1ccc(Cl)cc1)(c1nnc(-c2ccccc2)o1)c1nnc(-c2ccccc2)o1	1.0	.
35	O=C(Nc1ccc(-c2nnn(CC(=O)N3CCN(C(=O)c4ccco4)CC3)n2)cc1)c1ccccc1F	-2.0	-0.8
36	COc1cc2c(cc1OC)C(C)N(S(=O)(=O)c1ccc(C)cc1)CC2 (configuration not stated)	4.7	.
37	O=C(Nc1ccc(Cl)cc1)C1=Cc2ccccc2OC1	.	-0.15
38	O=C(NCCN1CCOCC1)C1(c2cccs2)CCOCC1	0.9	-0.21
39	Cc1c(OC(C)C)ccc2c3c(c(=O)oc12)CCC3	3.8	0.1
40	CCCCCCCc1c(C)[nH][nH]c1=O	1.4	-0.0045

Record cards (already shown):
COC(=O)c1ccc(CSc2nc3c(cnn3-c3ccc(Cl)cc3)c(=O)[nH]2)o1 as listed: Ab BasE inh: 3.2; KSHV LANA nucl: -0.8
Cc1ccc(N2C(=O)CC(N3CC4(C)CC3CC(C)(C)C4)C2=O)cc1 (configuration not stated) as listed: Ab BasE inh: -1.9; KSHV LANA nucl: 0.8
CCCCCCCc1c(C)[nH][nH]c1=O as listed: Ab BasE inh: 1.4; KSHV LANA nucl: -0.0045

Next section
#	mol	Ab BasE inh	KSHV LANA nucl
41	COc1cccc(NC(=O)c2ccc(CN3CCN(c4ccccc4)CC3)cc2)c1	1.1	0.36
42	C=CCc1c(C)nc(-c2ccccc2)nc1NN	1.5	0.7
43	CC(=O)Nc1nnc(C(C)C)s1	1.5	-1.2
44	CCOCCCNc1nc2ccccc2nc1NS(=O)(=O)c1cccc2nsnc12	0.7	-1.7
45	CCNc1nc(OC)nc(Oc2ccc(/C=N/O)cc2)n1	-1.6	.
46	Cc1nc(N2CCN(C)CC2)sc1-c1ccccc1	0.0	.
47	Cc1occc1-c1nnc(SCC(=O)N(Cc2ccccc2)C(C)(C)C)n1C	0.2	.
48	O=c1[nH]c2ccccc2n1C1CCCCC1	0.3	0.5
49	Nc1ccc2c(c1)COC2=O	-1.1	0.5
50	Clc1ccc(C2=CC(c3ccco3)n3ncnc3N2)cc1 (configuration not stated)	1.7	.
51	O=C(O)C1Cc2ccccc2CN1S(=O)(=O)/C=C/c1ccccc1 (configuration not stated)	1.5	.
52	Nc1nnc2cc(C(=O)c3cc(F)ccc3O)cnn12	-0.9	.
53	Nc1nc(COC(=O)/C=C/c2cc(Cl)c3c(c2)OCCO3)nc(Nc2ccccc2)n1	-2.0	.
54	CC(C)Oc1ccc(C2CC(=O)NNC2=O)cc1 (configuration not stated)	1.8	.
55	O=C1C=C/C(=N/N(Cc2ccccc2)c2ccccc2)O1	0.5	.
56	Cc1ccc(N(CC(N)=O)C2SC(=O)N(c3ccccc3)C2=O)cc1 (configuration not stated)	1.2	.
57	CCOC(=O)CSc1nncc(=O)[nH]1	0.1	.
58	CCN(CC)C(=S)SC1=CCS(=O)(=O)C1	0.2	.
59	COCCN=C1NN=C(c2ccc(C(C)(C)C)cc2)CS1	-1.6	.
60	OCCNC1CCCc2c1[nH]c1ccc(Br)cc21 (configuration not stated)	-11	0.29
61	COc1ccc(-c2nc(O)c3cnccn23)cc1	9.8	.
62	Cc1ccc(N2C(=O)N(Cc3cccnc3)c3ccccc3S2(=O)=O)cc1F	-2.7	0.16
63	CC(=O)Nc1ccc(C2=CSC3=NCCN23)cc1	-2.1	-0.56
64	O=c1c2cc(-c3ccccc3)sc2ncn1Cc1ccc(F)cc1	.	0.53
65	O=C(CSc1nnc(-c2cccs2)n1C1CC1)N1CCCC1c1ccc2c(c1)OCCCO2 (configuration not stated)	2.7	.
66	CCn1c(CNC(=O)c2ccc(Cl)cc2)nnc1SCC(=O)NC1=NCCS1	-1.0	0.72
67	NC(=O)CSc1nnc(Nc2ccccc2)s1	2.2	.
68	O=C(O[C@@H]1C[C@H]2C(=O)N[C@@H](Cc3ccccc3)C(=O)N2C1)c1ccccc1	.	2.3
69	COc1ccccc1-c1c(C#N)c(N)nc(SSc2nc(N)c(C#N)c(-c3ccccc3OC)c2C#N)c1C#N	1.2	.
70	CC(Sc1nc2c(c(=O)[nH]1)CCCC2)C(=O)Nc1ccc(Cl)cc1 (configuration not stated)	0.1	0.21
71	NC(=O)c1cccc(N)c1	-0.6	-0.74
72	Cc1cc(C)cc(NS(=O)(=O)c2ccc(NC(=O)C3CCCCC3C(=O)O)cc2)c1 (configuration not stated)	0.1	.
73	COC(=O)c1c[nH]c(=O)c2ccccc12	.	-0.0045
74	COc1ccc(-c2nnc(SCC3COc4ccccc4O3)o2)cc1 (configuration not stated)	2.4	.
75	CCCN(Cc1nnc(-c2ccccc2Cl)o1)C(=O)C1(c2ccccc2)CC1	-1.6	.
76	CC(=O)Nc1sccc1C(N)=O	-1.0	1.3
77	O=c1c2nnn(Cc3ccccc3)c2ncn1C/C=C/c1ccccc1	-2.2	-1.1
78	COc1ccc(S(=O)(=O)N2CCN(C(=O)c3cccs3)CC2)cc1OC	3.1	0.67
79	O=C(O)c1ccccc1C(=O)Nc1ccc(OC(F)F)cc1	1.7	0.034
80	CC(C)c1nccn1-c1ccc(N)cc1	-1.1	2.4
81	c1nnnn1C12CC3CC(CC(C3)C1)C2	-0.6	0.22
82	CCC(=O)Nc1cccc(C2=NN(C(C)=O)C(c3ccc(F)cc3)O2)c1 (configuration not stated)	0.0	-1.1
83	CCC(CC)NC(=O)c1cc(=O)c2ccccc2o1	1.3	.
84	Cc1cc(=O)[nH]c(=S)[nH]1	2.2&-3.7	0.13&-0.22
85	O=C(O)c1ccccc1OC(F)F	0.3	.
86	Cc1ccc(S(=O)(=O)Nc2c(C)ccc3nsnc23)cc1	0.6	0.28
87	COc1cc(C(=O)NCc2nc3ccccc3[nH]2)cc(OC)c1OC	1.7	-0.57
88	O=C(O)c1c(F)c(F)cc2ccccc12	1.7	.
89	CCOC(=O)Cc1csc(SCC2=C(C(=O)OCC)C(C)NC(=O)N2)n1 (configuration not stated)	1.2	.
90	CSC1=NC(c2ccc(N(C)C)cc2)NN1 (configuration not stated)	-0.3	.

Remaining list, next part:
#	mol	Ab BasE inh	KSHV LANA nucl
91	COc1ccc(N2C(=O)CCC(C(=O)NC3=NCCS3)C2c2ccccc2)cc1 (configuration not stated)	-1.3	.
92	CC(=O)Nc1ccc(Oc2ccc(S(=O)(=O)N3CCCC3)cn2)cc1	-2.2	.
93	O=C(CCCN1C(=O)c2cccnc2Sc2ccccc21)NC1CCCC1	-2.2	0.53
94	O=c1c2cccnc2n(Cc2ccccc2F)c(=O)n1C1CCCCC1	0.2	-0.57
95	Cc1ccc(OC(=O)CSc2nnc(-c3ccco3)n2-c2ccccc2)cc1	-0.5	0.41
96	CC1S/C(=C\C#N)NC1=O (configuration not stated)	-3.1	.
97	Cc1ccc(NC(=O)NC2CCN(C)CC2)cc1Cl	-3.4	-0.67
98	COCCn1c(-c2ccncc2)nn(CN2CC(C)OC(C)C2)c1=S (configuration not stated)	0.1	.
99	O=C(c1ccccc1)C(Sc1nnc(-c2ccco2)o1)c1ccccc1 (configuration not stated)	0.9	.
100	O=C1NC(=O)/C(=C/c2cccc(OC(=O)c3ccco3)c2)S1	2.9	-0.38

Overlap with the part before: 2 compounds, followed by the next part.
#	mol	Ab BasE inh	KSHV LANA nucl
99	O=C(c1ccccc1)C(Sc1nnc(-c2ccco2)o1)c1ccccc1 (configuration not stated)	0.9	.
100	O=C1NC(=O)/C(=C/c2cccc(OC(=O)c3ccco3)c2)S1	2.9	-0.38
101	CCOC(=O)c1cnc2ccc(C(=O)OC)cc2c1N1CC2(C)CC1CC(C)(C)C2 (configuration not stated)	1.0	.
102	CN1/C(=C\C(=O)COC(=O)c2cccnc2)C(C)(C)c2ccccc21	-4.6	.
103	Cc1ccc(C(CNC(=O)C(C)C)N2CCN(C)CC2)cc1 (configuration not stated)	-1.1	-0.16
104	CCCn1c(N)c(C(=O)CN2CCCc3ccccc32)c(=O)n(C)c1=O	1.0	.
105	COCCN(Cc1nc2ccccc2c(=O)[nH]1)C(=O)c1ccc(C)s1	1.0	.
106	CCOc1ccc(Oc2nnc(C)c3ccccc23)cc1	-0.2	.
107	Cc1cccc(-n2c(N)cc(=O)[nH]c2=S)c1	-0.3	.
108	CC(Cc1ccco1)NC(=O)c1ccc(NC(=O)C2=CSCCO2)cc1 (configuration not stated)	2.8	-0.74
109	Nc1nc(SC/C=C/c2ccccc2)nc2sc3c(c12)CCCC3	4.0	.
110	CCOC(=O)C1=C(CN(C)Cc2ccc(C)cc2)NC(=O)NC1CC (configuration not stated)	1.8	.
111	Cc1ccccc1N1C(=O)CSCC1=O	.	-0.44
112	O=C(OCc1ccccc1F)c1ccc2c(c1)OCCO2	1.6	.
113	CCSC1=NC2(CCN(S(C)(=O)=O)CC2)N=C1c1ccccc1	0.5	.
114	N#Cc1c(-n2cccc2)sc2c1CCN(c1cccc(F)n1)C2	.	0.38
115	CC(Cc1ccccc1)(NC(=O)CN)c1ccccc1 (configuration not stated)	.	-0.33
116	Cn1c(Cn2cnc3ccccc32)nnc1SCC(=O)CC(=O)Nc1ccccc1	1.4	0.46
117	c1ccc(OCc2nc3c4c5c(sc4ncn3n2)CCCC5)cc1	-0.9	.
118	N#CC(C#N)CC(=O)c1ccccc1	.	-0.89
119	COc1ccc(NC(=O)CNNc2ccc(S(N)(=O)=O)cc2)cc1	-0.9	.

Quoted from above, compounds 115 to 116
#	mol	Ab BasE inh	KSHV LANA nucl
115	CC(Cc1ccccc1)(NC(=O)CN)c1ccccc1 (configuration not stated)	.	-0.33
116	Cn1c(Cn2cnc3ccccc32)nnc1SCC(=O)CC(=O)Nc1ccccc1	1.4	0.46

The list is partial. The share of hits here may be higher or lower than overall.
